Screens (PubChem)
UCH37 inh – inhibitors of human UCH37 deubiquitinase, primary screen, biochemical, Ub-AMC cleavage, fluorescence | inhibition, % (test concentration not listed) | hit rate 0.33% among 330,000 | purified proteasome/UCH37;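 active = mean of two replicates above 20%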;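 note: 0% = compound-free wells with enzyme and 100% = wells lacking proteasome; stock transfer was 100 nL into about 20 µL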
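Material: Human UCH37 enzyme supplied as purified proteasome complex | Schedule: 30 min preincubation with enzyme, 25 min cleavage at room temperature | Detection: AMC fluorescence 355/460 nm | Measure: % inhibition of Ub-AMC cleavage fluorescence | Controls: Wells without proteasome as full block, compound-free enzyme plus substrate as uninhibited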
Bfl-1 A1 inh – caspase 3/7 activation in MEF A1-2A-BIM cells, primary screen, A1 inhibitor project, cell-based, luminescence, HTS; Caspase-Glo 3/7 luminescence, 3 h; percent of clofoctol response, vehicle zero; caspase activation, % (concentration not given with the values); hit rate 0.066% among 330,000; AID 2462, 2010;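 active = over half of replicate activation scores above 10%, or exactly half above 10 with the replicate mean above 10; inconclusive = replicate mean below 10 yet half the replicates above 10; inactive = over half of replicates below 10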;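 note: wells of about 30 µL received 50 nL stock; many hits fall short of the cut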
B2AR ag – beta2AR agonists driving receptor internalization, primary screen, cell-based, FAP fluorogen, flow cytometry; Am2.2-beta2AR cells; reference of the scale not given here; response, % (no concentration beside the values); hit rate 0.43% among 340,000;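 active = response above a set limit, near 3 SD of response in nonfluorescent compounds, cut at about 42% in these data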;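 note: stock transfer was 100 nL into about 11 µL; a reference agonist was the positive control; negative values mostly stem from fluorescent compounds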
LANA-H2A inh – blockers of LANA interaction with H2A/H2B – biochemical, FP readout, HTS, primary screen. AID 2629, 2010. hit rate 0.6% among 320,000. Protein LANA1 (Human herpesvirus 8 type P (isolate GK18)), Q9QR71. cell-free LANA-H2A/H2B peptide, fluorescence polarization. inhibition, % (test concentration not listed); in the data active = inhibition mostly above about 10%, no sharp cut-off; inactive = mostly below about 6.7%;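 note: stock transfer was 7.5 nL into about 10 µL; 0% = median of vehicle wells and 100% = median of positive control wells; one replicate is shown; the record names a cut of 25% in any replicate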
Target sequence (Q9QR71 whole entry, looked up): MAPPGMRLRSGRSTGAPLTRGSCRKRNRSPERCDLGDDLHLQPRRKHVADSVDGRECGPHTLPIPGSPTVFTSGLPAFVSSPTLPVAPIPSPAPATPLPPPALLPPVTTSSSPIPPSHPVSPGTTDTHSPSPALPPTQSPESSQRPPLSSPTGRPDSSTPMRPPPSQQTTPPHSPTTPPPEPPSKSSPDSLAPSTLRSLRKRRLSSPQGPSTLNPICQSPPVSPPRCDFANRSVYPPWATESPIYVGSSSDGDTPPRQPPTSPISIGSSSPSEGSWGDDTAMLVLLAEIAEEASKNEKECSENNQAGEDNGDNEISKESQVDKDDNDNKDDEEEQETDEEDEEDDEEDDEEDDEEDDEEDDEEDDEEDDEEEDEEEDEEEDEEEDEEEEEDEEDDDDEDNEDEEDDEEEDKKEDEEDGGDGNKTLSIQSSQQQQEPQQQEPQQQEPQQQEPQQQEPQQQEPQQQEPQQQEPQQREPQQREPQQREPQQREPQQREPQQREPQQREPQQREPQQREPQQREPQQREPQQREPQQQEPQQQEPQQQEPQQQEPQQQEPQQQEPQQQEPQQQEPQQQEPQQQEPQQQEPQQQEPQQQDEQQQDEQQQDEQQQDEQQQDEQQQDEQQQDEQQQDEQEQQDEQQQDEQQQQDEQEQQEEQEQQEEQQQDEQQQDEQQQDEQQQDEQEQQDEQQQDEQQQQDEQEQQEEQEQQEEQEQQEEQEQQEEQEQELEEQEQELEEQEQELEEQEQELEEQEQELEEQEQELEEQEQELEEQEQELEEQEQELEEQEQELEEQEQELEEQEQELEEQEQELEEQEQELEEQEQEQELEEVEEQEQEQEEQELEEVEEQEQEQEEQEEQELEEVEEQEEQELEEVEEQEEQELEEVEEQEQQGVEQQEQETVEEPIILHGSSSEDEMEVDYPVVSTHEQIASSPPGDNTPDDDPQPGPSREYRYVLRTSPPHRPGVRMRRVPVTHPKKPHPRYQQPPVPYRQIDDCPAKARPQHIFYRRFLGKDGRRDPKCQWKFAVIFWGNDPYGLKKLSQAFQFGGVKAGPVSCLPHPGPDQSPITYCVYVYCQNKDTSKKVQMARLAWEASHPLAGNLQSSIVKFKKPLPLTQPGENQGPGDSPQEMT
Vif A3G – inhibitors of Vif binding to APOBEC3G peptide, primary screen, biochemical, TR-FRET, GST-Vif 1-94, biotin-A3G peptide, dose response retest (AID 1117319). Virion infectivity factor (Human immunodeficiency virus type 1 group M subtype B (isolate …. TR-FRET GST-Vif / biotin-A3G peptide binding; higher % means a stronger effect; test concentration not given here; strong numbers were not always called active. inhibition, %; hits with a dose series show IC50 in µM. hit rate 0.57% among 260,000;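 active = above the screen mean plus three standard deviations and confirmed in dose response; inconclusive = results disagree or hit not tested in dose response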;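 note: Vif residues 1-94 fused to GST binding biotinylated APOBEC3G peptide 110-148; 0% = full assay without inhibitor and 100% = GST in place of GST-Vif; retest series ran down from 100 µM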
HNF4A DNA FP – change in binding of human HNF4A to DNA, primary screen, biochemical, fluorescence polarization, FITC-DNA; 1 h; Hepatocyte nuclear factor 4-alpha (Homo sapiens), P41235; activity change, % at 10 µM; hit rate 0.3% among 360,000; in the data active = activity change above about 30%, passing the limit was not always enough;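 note: controls were the assay level and a saturating level of protein; the project sought stronger binding though the title names inhibitors; some compounds called inactive have numbers as strong as hits; positive values seem to mean higher polarization but the record does not say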
E coli growth – E. coli growth inhibition, primary screen, OD600; hit rate 0.21% among 330,000; AID 1053175, 2014; Escherichia coli growth, 23 h; hits give low values; OD600 absorbance (concentration not given with the values);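 active = OD600 absorbance below the run mean of sample wells minus 3.6 SD, in any replicate, cut at about 0.56 in these data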;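 note: stock transfer was 300 nL into about 60 µL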
Active calls of the source: *; ? = inconclusive; nt = not tested or not shown; & = joins results of further samples. The list is partial; count on the stated rates, not on these rows.

compound,UCH37 inh,Bfl-1 A1 inh,B2AR ag,LANA-H2A inh,Vif A3G,HNF4A DNA FP,E coli growth
Cc1ccnc(-n2c(C)cc(C=C3C(=O)N(C)C(=S)N(C)C3=O)c2C)c1,2.5,-0.4,35,1.7,20%,3.8,0.71
O=C1NC(=O)C(=Cc2ccc(-c3cc(Cl)ccc3[N+](=O)[O-])o2)C(=O)N1,11,nt,2,nt,?,-9.5,0.71
CN1C(=O)/C(=C\c2ccc(N3CCCCCC3)cc2)C(=O)NC1=S,5.3,0.1,25,19,?,10,0.67
COC(=O)C(O)(c1ccc(NC(=O)c2ccccc2)cc1)C(F)(F)F (centres undefined),1.9,-0.8,-2,-2.7,11%,1.1,0.68
CCC(=NCCCn1ccnc1)c1c(O)n(Cc2ccccc2)c(=O)[nH]c1=O,-1.7,0.1,3,1.8,10%,0.9,0.66
CCCCCCC(N)CC(=O)O (centres undefined),3.8,nt,-1,nt,23%,1.8,0.7
CC(C)(C)c1ccccc1O,-0.1,-0.4,-2,0.9,nt,3.9,0.66
Cc1ncc2n1-c1ccc(Cl)cc1C(c1ccccc1F)=NC2,0.5,nt,-11,nt,nt,5.0,0.7
CNCCc1ccc(O)c(O)c1,1.4,-0.4,-2,3.0,nt,-0.7,0.69
NS(=O)(=O)c1ccc(N=Nc2c(O)[nH]c(=S)[nH]c2=O)cc1,nt,-1.8,7,-1.4,nt,1.2,nt
CN1CCN(C(=O)COc2ccc(-c3nc4ccccc4s3)cc2)CC1,-19,-1.6,-11,1.1,1%,-3.2,0.68
COc1ccc(CN2C(=O)NC(=O)/C(=C\c3cccc(OC)c3OC)C2=O)cc1,1.8,1.2,-2,1.9,25%,-1.1,0.68
Nc1ccc(CCN2CCN(c3cccc(C(F)(F)F)c3)CC2)cc1,-4.2,0.1,5,-0.5,nt,2.6,0.64
CCN(CC)CCCN=Cc1c(O)n(CCc2ccc(OC)c(OC)c2)c(=O)[nH]c1=O,3.2,-0.4,3,12,-4%,2.6,0.71
CN1C(=O)CN=C(c2ccc(Cl)cc2)c2cc(Cl)ccc21,2.3,0.1,-9,-0.6&-1.4,nt,-1.1,0.68
COc1ccc(NC(=O)CN2C3CCC2CC(O)(c2cccnc2)C3)cc1OC (centres undefined),0.6,-1.4,-11,-5.6,3%,2.1,0.74
Cc1ccccc1-n1c(O)c(/C=N/NC(=O)c2ccccc2O)c(=O)[nH]c1=S,-5.4,-4.3,6,-3.3,?,5.8,0.71
N=C1c2ccccc2CN1CC(=O)c1ccccc1,-0.7,0.3,-15,2.8,nt,-1.4,0.7
Cn1nnc(CC[N+](C)(C)C)n1,0.9,0.7,-1,-5.2,31%,1.7,0.69
Cc1ccc(-c2cc(-c3ccc(C)cc3)[n+](-c3ccc(C(=O)[O-])cc3)c(-c3ccc(C)cc3)c2)cc1,-40,0.2,0,-1.0,nt,0.4,nt
CCOC(=O)c1cc(CC)sc1/N=C/C1C(=O)NC(=S)NC1=O,nt,0.4,10,-1.1,-4%,1.1,nt
O=S1(=O)CC2(N3CCOCC3)CCCCCCC21 (centres undefined),0.3,-0.4,2,-0.6,0%,1.4,0.71
CCN1C[C@]2(OC(=O)c3ccccc3NC(C)=O)CCC(OC)C34C5C[C@H]6C(OC)[C@]5(O)[C@](O)(C[C@@H]6OC)C(C[C@@H]32)[C@H]14 (some centres undefined),-3.8,0.4,0,-3.2,5%,2.9,0.69
CN(C)c1ccc(C(=O)N/N=C/C23CC[C@@H](O)CC2(O)CC[C@@H]2[C@@H]3CCC3(C)C(C4=CC(=O)OC4)CCC23O)cc1 (some centres undefined),nt,0.0,4,-6.0,-7%,1.4,nt
O=[N+]([O-])c1cccc(NP(=O)(Oc2ccccc2)Oc2ccccc2)c1,1.4,0.7,-12,-3.0,-7%,-0.8,0.63
CCn1c(C(=O)N2CCC(C(=O)N3CCC4(CC3)OCCO4)CC2)cc2sccc21,7.6,0.7,5,-1.2,11%,0.7,0.66
CCCCn1c(C)c(C(=O)OCC)c2c(CN3CCOCC3)c(O)ccc21,5.5,0.4,0,-0.3,-2%,6.9,0.71
Cn1c(O)c(C=Nc2ccc(F)cc2)c(=O)[nH]c1=O,6.3,0.6,-5,0.5,-3%,-3.3,0.67
Cc1cccc(N2C(=O)NC(=O)/C(=C\c3cnc(-c4ccccc4)nc3)C2=O)c1,5.3,0.0,2,1.1,?,3.7,0.69
CCCOC(=O)COc1cc(C)cc2oc(=O)c3c(c12)CCC3,-14,-0.1,4,-3.2,2%,2.4,0.72
COc1ccc(N2C(=O)CC(=O)NC2=O)cc1,3.0,-0.1,-1,1.0,5%,1.6,0.71
COC(=O)C1=C(c2ccc(Cl)c(C(F)(F)F)c2)C[C@@H]2CC[C@H]1N2C(=O)NCCOc1ccccc1,-1.7,1.7,4,4.4,nt,1.5,0.77
COC(=O)C1=C(c2cc3ccccc3o2)C[C@@H]2CC[C@H]1N2C(=O)NCCO,27*,0.9,-3,3.9,nt,-0.5,nt
CC(=O)c1ccc(-c2ccccc2)cc1,1.8,-3.6,-5,1.5,nt,0.8,0.67
Cc1cccc(NC2=NCCCS2)c1,3.3,-0.8,-2,-1.1,16%,1.2,0.67
CC1=C(O)C(=O)C=C2C1=CC=C1C2(C)CCC2(C)C3CC(C)(C(=O)O)CCC3(C)CCC12C (centres undefined),nt,nt,105*,nt,12µM*,-6.6,nt
O=C(Cn1cc(C(=O)c2ccccc2F)c2ccccc21)NC1CC1,1.8,0.4,2,-1.1,-2%,1.5,0.72
COc1cc(/C=C2\C(=O)NC(=O)N(c3ccccc3)C2=O)cc(OC)c1OC,1.1,-0.3,0,4.6,15%,0.7,nt
O=C(c1cc2cc(Cl)ccc2[nH]1)N1CCC2(CC1)OCCO2,0.6,-0.2,7,-1.6,-1%,2.3,0.68
Cc1ccc(N2C(=O)NC(=O)/C(=C/c3cnn(-c4ccc(C)cc4)c3)C2=O)cc1,nt,-0.1,23,-8.3,-8%,1.1,nt
O=C(CCl)NCC1CCCO1 (centres undefined),-1.5,0.4,-2,-0.8,-2%,3.2,0.7
COC(=O)c1ccccc1NC(=O)N1C[C@@H]2C[C@@H](C1)c1cccc(=O)n1C2,4.7,0.6,20,-2.2,nt,-1.9,0.71
Cc1cccc(CN2CCCC(C(=O)c3ccc(C(F)(F)F)cc3)C2)n1 (centres undefined),4.7,0.1,7,2.5,-6%,0.8,0.69
CC(=NCC1CCCO1)c1c(O)n(-c2ccc(C)cc2)c(=O)[nH]c1=O (centres undefined),0.8,-0.4,4,-0.2,4%,2.1,0.67
O=C1NC(=S)N(c2ccc(Br)cc2)C(=O)/C1=C/N1CCN(C(=O)c2ccco2)CC1,-0.2,-1.8,3,-3.3,4%,49*,0.64
COP(=O)(OC)C(NS(=O)(=O)c1ccccc1)C(Cl)(Cl)Cl (centres undefined),5.8,-0.1,-1,2.1,16%,-3.1,0.67
COc1cc(CN2C(=O)NC(=O)C3(Cc4cc(C)ccc4N(C)C3)C2=O)cc(OC)c1 (centres undefined),4.1,0.5,18,6.4,25%,-2.9,0.69
CCN1CCC(NCC2CCCCC2)CC1,3.4,0.0,4,4.8,nt,5.0,0.71
O=C1NC(=O)N(c2cccc(Br)c2)C(=O)/C1=C/c1ccsc1,2.2,0.2,4,3.0,7%,1.1,0.68
Cc1cc(C(=O)O)c(C)n1C1CC1,2.1,0.5,7,4.2,21%,5.1,0.68
Nc1cc(N2CCNCC2)ccc1[N+](=O)[O-],9.6,0.1,-3,2.8,32%,1.6,0.63
COc1cccc(OC)c1C(=O)NC(=S)N1C[C@H]2C[C@H](C1)c1cccc(=O)n1C2,1.2,-0.6,17,4.4,nt,1.1,0.71
COP(=S)(OC)SCN1C(=O)c2ccccc2C1=O,1.3,nt,-7,23*,3%,6.2,0.71
Cn1cnc([N+](=O)[O-])c1Sc1ccc([N+](=O)[O-])cc1,11,0.2,9,5.8,nt,5.3,0.6
Cc1ccsc1C(=O)C1CCCN(Cc2cnc(N(C)C)s2)C1 (centres undefined),nt,0.0,nt,-0.5,14%,nt,nt
Nc1ccc2nonc2c1[N+](=O)[O-],8.0,0.3,-7,29*,2%,-112,0.71
CN1CCCCC1c1ccc(-c2cccnc2)nc1 (centres undefined),4.2,-0.1,-3,-4.4,16%,-0.8,0.75
Nc1c(Cl)cc([N+](=O)[O-])cc1Cl,nt,1.6,5,-2.9,nt,-5.2,nt
CCOC(=O)CNC(=O)CSP(=S)(OCC)OCC,-1.9,-0.2,24,5.3,-7%,-0.5,0.72
CCCCn1c(=O)c(C(=O)NCc2ccccc2Cl)c(O)c2ccccc21,-0.9,-0.1,-2,7.5,nt,0.3,0.73

The listing continues.
compound,UCH37 inh,Bfl-1 A1 inh,B2AR ag,LANA-H2A inh,Vif A3G,HNF4A DNA FP,E coli growth
CCCCn1c(=O)c(C(=O)Nc2nnc(C(C)C)s2)c(O)c2ccccc21,-2.2,0.6,nt,2.4,nt,nt,0.69
Cn1c(O)c(C=NCCN2CCOCC2)c(=O)n(C)c1=S,8.2,0.0,-4,-3.4,31%,0.3,0.7
COC(=O)C1=C(c2ccc(-c3ccccc3)c(F)c2)C[C@@H]2CC[C@H]1N2C(=O)NCCOc1ccccc1,2.1,-0.7,8,-2.2,nt,-1.3,nt
CCc1ccc(-n2c(O)c(C(C)=O)c(=O)[nH]c2=O)cc1 (tested in a mixture with another compound),1.0,-0.1,2,-4.0,7%,3.2,0.69
CCc1ccc(NC(=O)CN2CC(c3ccccc3)CC2=O)cc1 (centres undefined),0.5,0.7,-3,-2.8,-7%,4.8,0.7
COC(=O)C1=C(c2ccc(Cl)c(C(F)(F)F)c2)C[C@@H]2CC[C@H]1N2C(=O)NC1CCCCC1,5.0,0.7,9,-1.0,nt,-4.6,nt
COC(=O)C1=C(c2cc3ccccc3o2)C[C@@H]2CC[C@H]1N2C,-2.9,1.5,-8,-5.5,nt,4.1,0.74
CCOC(=O)C1=C(C)OC(N)=C(C(=O)OC)C12C(=O)Nc1ccc(Br)cc12 (centres undefined),2.3,-0.6,-1,1.0,9%,-2.3,0.74
COc1ccc(CCNCc2ccsc2)cc1OC,4.3,0.3,0,1.4,-7%,-1.2,0.7
Clc1ccc(COC(Cn2ccnc2)c2ccc(Cl)cc2Cl)c(Cl)c1 (centres undefined),2.2&2.5,0.4,4&-4,2.8,4%,-3.2&0.9,0.64
CCN1CCC2(CC1)NC(CO)(CO)CO2,-3.3,0.4,-2,2.1,-2%,-3.4,0.74
O=C1c2ccccc2C(=O)N1Cc1nc2ccccc2c(=O)n1-c1ccccn1,5.4,-0.4,-2,-4.0,2%,0.7,0.77

Ordered by molecular weight (lowest first): 3 of the compounds above.
compound,UCH37 inh,Bfl-1 A1 inh,B2AR ag,LANA-H2A inh,Vif A3G,HNF4A DNA FP,E coli growth
COC(=O)C1=C(c2cc3ccccc3o2)C[C@@H]2CC[C@H]1N2C,-2.9,1.5,-8,-5.5,nt,4.1,0.74
Cn1c(O)c(C=NCCN2CCOCC2)c(=O)n(C)c1=S,8.2,0.0,-4,-3.4,31%,0.3,0.7
Clc1ccc(COC(Cn2ccnc2)c2ccc(Cl)cc2Cl)c(Cl)c1 (centres undefined),2.2&2.5,0.4,4&-4,2.8,4%,-3.2&0.9,0.64
